rTrxR1 inhibitor = rat TrxR1 inhibition | O89049 | recombinant rTrxR1, NADPH fluorescence consumption, selenite substrate | Potency, µM (doses to about 114 µM), without a hit: at the highest dose activity change, negative = inhibition, most hits filed as inhibitors | actives 1% (n = 390,000) | AID 588453; also: potency is read from the fitted curve at half-maximal effect; % is scaled to controls: 0 for no effect and ±100 for the full control effect; nearly all actives have a fitted effect of over 65% in size
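Rat TrxR1 (90 nM in the dispensed reagent) was pre-reduced with 400 uM NADPH for 5 min at room temperature, then incubated with compound for 15 min. After 400 uM selenite was added, NADPH fluorescence (Ex 340/Em 450 nm) was followed for 8 min.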
Vif-APOBEC3F blk = inhibitors of Vif-A3F interaction; HeLa A3F-eYFP + Vif (tagged APOBEC3F with the HIV-1 protein that degrades it), YFP fluorescence increase; Potency, µM (doses to about 46.1 µM), without a hit: at the top dose activity, negative = active; actives 0.2% (n = 390,000); also: potency is read from the fitted curve at half-maximal effect; % of control where 0% means no effect; nearly all actives have a fitted effect of over 65% in size
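HeLa cells stably expressing A3F-eYFP plus Vif, plated and incubated overnight at 37 deg C, then exposed to compounds overnight at 37 deg C. Blocked degradation read as raised yellow fluorescence (Ex 488/Em 500-530).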
Glioma ERSR ind = inducers of ER stress response in human glioma cells; U87-MG GRP78 promoter luciferase reporter, 16 h; actives 0.02% (n = 420,000); Potency, µM, for the others: at the top dose activation, actives largely listed as activators; also: potency is read from the fitted curve at half-maximal effect; series mostly up to about 76 µM; % of control where 0% means no effect; nearly all actives have a fitted effect of over 35% in size
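Stably transfected U87-MG glioma cells carrying a GRP78-based luciferase sensor; 16 h compound incubation. Luminescence end-point read 10 min after Bright-Glo addition at room temperature.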
Vif-APOBEC3G blk = inhibitors of Vif-APOBEC3G interaction | actives 0.076% (n = 410,000) | HeLa A3G-eYFP + Vif (tagged APOBEC3G with the HIV-1 protein that degrades it), YFP fluorescence, overnight | Q9HC16 | Potency, µM (highest dose often 46.1 µM), for inactives: at the top dose activity, negative = active, hits mostly inhibitors;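 also: potency is read from the fitted curve at half-maximal effect; % is scaled to controls: 0 for no effect and ±100 for the full control effect; nearly all actives have a fitted effect of over 60% in size; hits raise eYFP signal because A3G escapes Vif-driven loss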
Target sequence (Q9HC16 whole entry, looked up): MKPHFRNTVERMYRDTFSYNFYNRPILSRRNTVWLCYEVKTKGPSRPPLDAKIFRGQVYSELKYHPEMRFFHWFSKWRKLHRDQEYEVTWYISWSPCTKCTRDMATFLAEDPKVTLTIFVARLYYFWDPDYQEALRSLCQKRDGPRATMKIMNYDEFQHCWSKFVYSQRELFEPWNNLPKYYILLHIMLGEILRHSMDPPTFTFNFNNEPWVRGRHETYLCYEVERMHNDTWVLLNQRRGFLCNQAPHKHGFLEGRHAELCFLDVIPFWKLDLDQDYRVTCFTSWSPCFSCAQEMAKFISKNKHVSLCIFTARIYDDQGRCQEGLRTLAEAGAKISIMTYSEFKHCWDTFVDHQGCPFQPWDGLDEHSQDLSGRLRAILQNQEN
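Read-out is eYFP fluorescence (Ex 488/Em 500-530) from Vif-expressing HeLa A3G-eYFP cells; more signal means A3G escaped Vif-mediated degradation. Cells plated overnight, compound pinned in, incubated overnight at 37 deg C.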
TrxR1 substrate = rat thioredoxin reductase 1 substrate activity; AID 588456; Potency, µM (highest dose often 114 µM), for the others: at the highest dose activity change, negative = substrate turnover; actives 0.01% (n = 390,000); purified TrxR1 substrate turnover, NADPH consumption readout; also: potency is read from the fitted curve at half-maximal effect; % is scaled to controls: 0 for no effect and ±100 for the full control effect; nearly all actives have a fitted effect of over 50% in size
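Rat TrxR1, dispensed at 90 nM, was prereduced with 400 uM NADPH (final) for 5 min at ~22 deg C, then incubated with compound 15 min before 400 uM selenite. A first-read NADPH fluorescence drop versus no-compound background flagged substrates.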
IDH1 R132H inh = human IDH1 R132H inhibition | Potency, µM (top dose mostly 76.6 µM), for inactives: at the highest dose activity change, negative = inhibition, usual class: inhibitors | O75874 | AID 602179 | actives 0.093% (n = 390,000) | IDH1-R132H enzyme, NADPH consumption, diaphorase/resazurin fluorescence; also: potency is read from the fitted curve at half-maximal effect; % is scaled to controls: 0 for no effect and ±100 for the full control effect; nearly all actives have a fitted effect of over 65% in size
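IDH1-R132H (0.5 ug/mL) preincubated 30 min with compound, then NADPH (0.016 mM) and alpha-KG (2 mM) added; 80 min at RT, pH 7.5. Remaining NADPH coupled via diaphorase/resazurin to fluorescence (540/590 nm); concentration-response curves normalized to no-enzyme control.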
LDHA block = inhibitors of human lactate dehydrogenase A. purified LDHA, NADH/diaphorase-resazurin fluorescence; hits give low values. P00338. activity change, % (values are at about 110 or 230 µM). actives 0.15% (n = 480,000); in the data active = activity change below about -30%; inconclusive = mostly about -25% to -30%;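 also: plate controls were DMSO wells for no effect and wells without enzyme for full effect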
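Remaining NADH was detected by diaphorase (0.133 mg/mL) converting 37 µM resazurin to fluorescent resorufin, read at 0 and 20 minutes. The preceding 5-minute room-temperature reaction used 2 nM LDHA, 0.2 mM sodium pyruvate and 0.06 mM NADH at pH 7.4.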
RGS4 inhibitor = inhibitors of human regulator of G protein signaling 4; actives 0.039% (n = 390,000); Potency, µM (top dose mostly 114 µM), without a hit: at the top dose activity change, negative = inhibition, most hits filed as inhibitors; P49798; Transcreener GDP fluorescence polarization, RGS4-accelerated GTP hydrolysis; also: potency is read from the fitted curve at half-maximal effect; % is scaled to controls: 0 for no effect and ±100 for the full control effect; nearly all actives have a fitted effect of over 75% in size; some results filed as inactive show a strong effect at the top dose
Target sequence (P49798 whole entry, looked up): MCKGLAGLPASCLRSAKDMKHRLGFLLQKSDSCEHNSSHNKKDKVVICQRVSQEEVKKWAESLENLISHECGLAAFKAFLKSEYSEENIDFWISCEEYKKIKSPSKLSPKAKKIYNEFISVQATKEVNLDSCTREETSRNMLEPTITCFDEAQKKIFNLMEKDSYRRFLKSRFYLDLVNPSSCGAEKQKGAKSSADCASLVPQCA
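MLSMR compounds (23 nl, pin-transferred) preincubated 10 min at room temperature with a 500nM (2x) first reagent, then RGS4 at 900nM (2x) plus Transcreener GDP mix added; fluorescence polarization (620/688 nm) read before and after 90 min at 30 °C.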
* = called active by the depositor; ? = inconclusive; [ ] = remark or other dose. Unless noted, calls follow the shape of the dose curve; as a rule, active = well fitted curve in the direction sought with a large enough effect; inconclusive = small, poorly fitted or top-dose-only effect, or another doubt; inactive = no such curve, though single readings can be large; an effect the other way counts as inactive or inconclusive. Some of the compounds tested; the hit share may differ from the screen's.

Keys: A = rTrxR1 inhibitor; B = Vif-APOBEC3F blk; C = Glioma ERSR ind; D = Vif-APOBEC3G blk; E = TrxR1 substrate; F = IDH1 R132H inh; G = LDHA block; H = RGS4 inhibitor
SMILES: O=C(O)C(C=C(Cl)Cl)N1CCOCC1 (stereo not given)
  A = -7%; B = 2%; C = -3%; D = 0%; E = -10%; F = 3%; G = -11; H = 20%

SMILES: CCOc1ccc(CN2CCNC(=O)C2CC(=O)NCCC2=CCCCC2)cc1 (stereo not given)
  A = 25%[57.1 µM]; B = -1%; C = -4%; D = 1%; E = 11%[57.1 µM]; F = 11%; G = 2; H = -1%

SMILES: c1ccc(C(c2ccccc2)N2CCN(C(c3ccccn3)c3nnnn3C3CCCC3)CC2)cc1 (stereo not given)
  A = 5%[57.1 µM]; B = 9%; C = -4%; D = 4%; E = -13%; F = -10%; G = -7; H = -4%

SMILES: COc1ccc(S(=O)(=O)Nc2nc3ccccc3nc2Nc2cccc(C(=O)O)c2)cc1
  A = -21%; B = -3%; C = -2%; D = -8%; E = -14%; F = 2%; G = -5; H = -8%

SMILES: O=C(CSc1ccc2nnc(CCNC(=O)c3ccccc3)n2n1)Nc1ccccc1F
  A = 6%; B = 0%; C = -6%; D = 10%; E = 4%; F = -4%; G = -8; H = 19%

SMILES: O=C(C(c1ccccc1)N1CCOCC1)N1CCOCC1 (stereo not given)
  A = -7%[57.1 µM]; B = 1%; C = -4%; D = 0%; E = -9%[57.1 µM]; F = 13%; G = 0; H = 9%

SMILES: O=C(O)c1cc2nc(-c3ccccc3)cc(C(F)(F)F)n2n1
  A = 13%; B = -4%; C = -5%; D = -1%; E = 5%; F = 5%; G = 1; H = 9%[56.9 µM]

SMILES: CC(=O)Nc1ccc(C=NNC(=O)c2ccc(NS(=O)(=O)c3cccs3)cc2)cc1
  A = 18%[57.1 µM]; B = 3%; C = -2%; D = 1%; E = 19%; F = 4%; G = -33*; H = -44%

SMILES: COc1cc(/C=C2\CCCc3c2nc2ccccc2c3C(=O)O)cc([N+](=O)[O-])c1O
  A = -27%; B = 12%; C = -5%; D = 0%; E = -18%; F = 10%; G = 24; H = 4%

SMILES: COc1ccc(/C=C2/Sc3ccc(C(=O)NCCN4CCCCCC4)cc3NC2=O)cc1
  A = 25%; B = 8%; C = -14%; D = -4%; E = 1%; F = 6%; G = -2; H = 6%

SMILES: O=C(N/N=C/c1ccc(-c2cccc(C(F)(F)F)c2)o1)c1ccccc1Br
  A = -14%; B = ?; C = 1%; D = -30%; E = -5%; F = 0%; G = -4; H = 27%

SMILES: O=S(=O)(NCc1ccc2c(c1)OCO2)c1ccc(Cl)s1
  A = 5%; B = -8%; C = -1%; D = 0%; E = -1%; F = -1%; G = -6; H = 32%

SMILES: c1ccc(C(c2nnnn2C2CCCCC2)N2CCc3ccccc3C2)nc1 (stereo not given)
  A = -27%; B = -1%; C = 3%; D = 0%; E = 128%[activator]; F = 3%; G = 12; H = 7%

SMILES: CC(C(=O)N1CCOCC1)N1C(=O)c2ccccc2C1=O (stereo not given)
  A = -2%; B = -5%; C = -3%; D = 4%; E = -6%; F = -4%; G = -4; H = -1%

SMILES: O=C(N[C@@H](Cc1ccccc1)C(=O)OCc1ccccc1)c1nc[nH]c1C(=O)NC1CCNCC1
  A = -10%; B = -2%; C = -6%; D = 0%; E = -6%; F = -11%; G = 0; H = -8%

SMILES: Cc1cc(C)c(S(=O)(=O)Nc2cccnc2)c(C)c1
  A = -6%[57.1 µM]; B = -8%; C = -4%; D = -2%; E = 2%[57.1 µM]; F = 1%; G = -14; H = 12%

SMILES: Cc1cc(-c2csc(NC(=O)c3ccc(C#N)cc3)n2)c(C)n1Cc1ccco1
  A = -7%[57.1 µM]; B = -3%; C = -6%; D = 0%; E = 5%[57.1 µM]; F = 1%; G = -6; H = ?

SMILES: CCc1ccccc1N/N=C(/C)c1c(O)cc(C)oc1=O
  A = -37%; B = 3%; C = -3%; D = 0%; E = -6%[57.1 µM]; F = 7%; G = 3; H = ?

SMILES: CC1CCCCC1NC(=O)c1cc2c(=O)n3ccccc3nc2n1C (stereo not given)
  A = 4%; B = 0%; C = -2%; D = 0%; E = -1%; F = -4%; G = 0; H = 1%

SMILES: Cc1sc2ncn(CC(=O)NCCCC(=O)N3CCC(C(N)=O)CC3)c(=O)c2c1C
  A = 22%[57.1 µM]; B = 11%; C = -2%; D = 0%; E = 6%[57.1 µM]; F = -3%; G = -10; H = -5%

SMILES: C=CCn1c(CCNC(=O)c2cccs2)nnc1SCC(=O)Nc1cccc(F)c1
  A = 14%; B = -16%; C = -1%; D = 2%; E = 2%; F = 4%; G = 2; H = 2%

SMILES: Cn1c2ccc(F)cc2c2ncn(CCCN(CCO)CCO)c(=O)c21
  A = ?; B = -1%; C = -5%; D = 3%; E = 55%[activator]; F = 3%; G = -3; H = -19%

SMILES: CCC(CC)C(=O)OCC(=O)NC12CC3CC(CC(C3)C1)C2
  A = -4%[57.1 µM]; B = -1%; C = 0%; D = -1%; E = 6%[57.1 µM]; F = 8%; G = 2; H = 1%

SMILES: Cc1ccc(NC(=O)c2ccccc2Br)c(C(=O)c2ccccc2)c1
  A = 20%; B = 0%; C = 4%; D = -6%; E = 1%; F = 14%; G = 4; H = -13%

SMILES: CC(=O)Nc1cccc(C(=O)OCC(=O)c2ccccc2Cl)c1
  A = 28%[57.1 µM]; B = 5%; C = -2%; D = -8%; E = 14%[57.1 µM]; F = 2%; G = -4; H = 2%

SMILES: CCC(=O)N1C(=O)CCN(C(C)=O)c2ccccc21
  A = -2%; B = -9%; C = -5%; D = -1%; E = 2%; F = 0%; G = 1; H = -3%

SMILES: CC(=O)N1CCc2c(sc(NC(=O)c3cccc(N4C(=O)CCC4=O)c3)c2C(N)=O)C1
  A = ?; B = -8%; C = 0%; D = 1%; E = -2%; F = 11%; G = 2; H = ?

Reformatted with two lines to a compound: entries from further up.
Each structure is followed by: rTrxR1 inhibitor	Vif-APOBEC3F blk	Glioma ERSR ind	Vif-APOBEC3G blk	TrxR1 substrate	IDH1 R132H inh	LDHA block	RGS4 inhibitor
> O=S(=O)(NCc1ccc2c(c1)OCO2)c1ccc(Cl)s1
    5%	-8%	-1%	0%	-1%	-1%	-6	32%
> CC(=O)Nc1cccc(C(=O)OCC(=O)c2ccccc2Cl)c1
    28%[57.1 µM]	5%	-2%	-8%	14%[57.1 µM]	2%	-4	2%
> CC(=O)N1CCc2c(sc(NC(=O)c3cccc(N4C(=O)CCC4=O)c3)c2C(N)=O)C1
    ?	-8%	0%	1%	-2%	11%	2	?
> O=C(N[C@@H](Cc1ccccc1)C(=O)OCc1ccccc1)c1nc[nH]c1C(=O)NC1CCNCC1
    -10%	-2%	-6%	0%	-6%	-11%	0	-8%
